From PubChem
Rango release inh – inhibition of RanGTP-driven Rango-importin beta dissociation; O95149+P62826; 0.071% of 340,000 active; Biochemical FRET Rango-importin beta, RanGTP-induced dissociation; Potency, µM (highest dose often 46.1 µM), inactives show at the highest dose activity change, negative = inhibition; active means falling FRET ratio curve, often poorly fitted, with flat reads before Ran was added; inconclusive means other falling curves, or compound fluorescence or quenching; inactive means flat or rising ratio curve;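 further: potency means the concentration at half of the fitted maximal effect; % of control where 0% means no effect; nearly all actives have a fitted effect of over 45% in size; -100% = wells without RanGTP and RCC1; the record marks most hits as doubtful in a second field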
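Rango/importin beta premix (0.1/0.25 uM final), PBS + 1 mM DTT + 0.02% Tween-20 + 0.1% BSA; cpd 5 min RT; FRET pre-read; + RanGTP-RCC1 (0.6 uM Ran, 2 mM GTP, 0.2 uM RCC1); 45 min RT; FRET post-read, ex 430, em 486/530 nm.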
GLA inh pH 4.5 – inhibitors of human alpha-galactosidase A at pH 4.5; 230,000 tested, under 10 active; purified enzyme, 4-MU-alpha-Gal fluorescence, pH 4.5; P06280; AID 1467; activity change, negative = inhibition, % at 105 µM; inconclusive = small, poorly fitted or top-dose-only inhibition, or a rising curve; inactive = flat fitted curve, though single readings scatter; no compound was filed as active;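 further: 0% = full activity with enzyme and -100% = basal without enzyme; dose as in the result columns while the protocol names 77 µM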
Target sequence (P06280 whole entry, looked up): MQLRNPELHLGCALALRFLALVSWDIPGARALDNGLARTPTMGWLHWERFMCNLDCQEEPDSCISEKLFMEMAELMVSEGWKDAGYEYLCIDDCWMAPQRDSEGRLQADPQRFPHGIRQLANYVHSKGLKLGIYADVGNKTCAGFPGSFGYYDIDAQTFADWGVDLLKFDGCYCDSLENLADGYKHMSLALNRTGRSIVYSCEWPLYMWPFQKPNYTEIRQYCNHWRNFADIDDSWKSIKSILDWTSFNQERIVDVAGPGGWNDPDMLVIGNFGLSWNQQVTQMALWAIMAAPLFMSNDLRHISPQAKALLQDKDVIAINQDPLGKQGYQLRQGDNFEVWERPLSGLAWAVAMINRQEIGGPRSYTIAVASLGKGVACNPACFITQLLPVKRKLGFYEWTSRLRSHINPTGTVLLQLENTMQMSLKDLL
miR-21 reporter – miR-21 reporter, rising signal; Potency, µM (highest dose often 38.3 µM), inactives show top-dose reporter change, positive = more light; HeLa miR-21 FLuc reporter, luciferase, 48 h; 340,000 tested, under 10 active; active = well fitted rising curve with a large enough effect; inconclusive = small, poorly fitted or top-dose-only effect; inactive = no such curve, though single readings can be large or run the other way;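 further: % of control where 0% means no effect; miR-21 action dims this reporter so a rising signal means less miR-21 action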
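Compounds were titrated across several concentrations (up to approximately 40 uM) and incubated 48 hours with HeLa miR-21-FLuc reporter cells (miR-21 target sequence downstream of FLuc, endogenous miR-21). Readout was firefly luciferase luminescence after lytic detection reagent.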
Rango complex inh – Rango-importin beta binding inhibition; Q14974; Rango CFP/YFP FRET sensor + importin beta, 45 min; Potency, µM (series often up to 92.2 µM), for the others: at the top dose inhibition of complex formation; 0.031% of 340,000 active; active = rising FRET ratio curve, often small or poorly fitted; inconclusive = mostly compound fluorescence or quenching in the first reads; inactive = flat curves in all reads;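 further: potency means the concentration at half of the fitted maximal effect; 0% = DMSO wells and 100% = buffer wells lacking importin beta; nearly all actives have a fitted effect of over 15% in size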
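FRET biosensor (snurportin 1 IBB flanked by EYFP and cerulean), 50 nM, with compound 5 min, then 0.125 microM importin beta in PBS, 1 mM DTT, 0.02% Tween-20, 0.1% BSA. CFP/YFP ratio read after 45 min at room temperature; pre-read flags interference.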
Active calls of the source: *; ? = inconclusive; / = no result given; & = joins results of further samples.

Molecule	Rango release inh	GLA inh pH 4.5	miR-21 reporter	Rango complex inh
Cn1c(O)c(/C=C2\C=Nc3ccc(Br)cc32)c(=O)n(C)c1=O	5%	/	0%	0.1%
CCOC(=O)C(O)(c1ccc(N=c2ccccn2C)cc1)C(F)(F)F (stereo not drawn)	8%	3	1%	-0.7%
CN(C)c1ccc(C=C(C#N)C#N)cc1	-7%	0	1%	-2.6%
Cc1nn(Cc2ccccc2)c(C)c1C=C1C(=O)NC(=S)NC1=O	19%	-2	-17%	-1.3%
Cc1cccc(-n2c(=S)[nH]c3ccccc3c2=O)n1	3%	8	1%	-2.5%
Cc1nn(Cc2ccccc2)c(C)c1C(=O)OCC(=O)NCc1ccco1	-8%	13	-12%	5.6%
C=CCn1c(O)c(C(C)=NC2CC2)c(=O)[nH]c1=O	15%	-7	3%	3.8%
CN(C)C(=O)Oc1ccc2c(c1)O/C(=C\c1ccc(Cl)cc1)C2=O	-9%	/	-16%	0.4%
Cc1ccc(O)c(C)c1	0%	/	/	1.9%
O=c1[nH]c(O)c(C=Nc2ccccc2Sc2ccccc2)c(=O)[nH]1	1%	7	2%	1.5%
COc1ccccc1OP(=O)(Nc1ccc(Br)cc1)Oc1ccccc1OC	-3%	/	17%	1.5%
CN1CCC2(CC1)C(C#N)=C(N)NC(S)=C2C#N	?	-6&1	-4%&-13%	?
CN1OC[C@@H]2COc3ccc4ccccc4c3[C@@H]21	4%	4	-10%	0.2%
O=C(NC(C(Cl)Cl)N1CCOCC1)c1ccccc1 (stereo not drawn)	?	7	-1%	-2.3%
CCc1c(C)nc(N)nc1N1N=C1SCC#N	-4%	6	6%	0.5%

The last 5 entries of the section before lead into the next.
Molecule	Rango release inh	GLA inh pH 4.5	miR-21 reporter	Rango complex inh
COc1ccccc1OP(=O)(Nc1ccc(Br)cc1)Oc1ccccc1OC	-3%	/	17%	1.5%
CN1CCC2(CC1)C(C#N)=C(N)NC(S)=C2C#N	?	-6&1	-4%&-13%	?
CN1OC[C@@H]2COc3ccc4ccccc4c3[C@@H]21	4%	4	-10%	0.2%
O=C(NC(C(Cl)Cl)N1CCOCC1)c1ccccc1 (stereo not drawn)	?	7	-1%	-2.3%
CCc1c(C)nc(N)nc1N1N=C1SCC#N	-4%	6	6%	0.5%
Cc1cccc(N=Cc2c(O)n(-c3ccccc3C)c(=O)[nH]c2=O)c1	-1%	10	1%	-6.1%
COc1ccc(-c2nc(CSCC(=O)N3CCC4(CC3)OCCO4)c(C)o2)cc1OC	?	-7	3%	?
Cc1nc2ccccc2c(=O)n1-c1ccc(Br)cn1	29%	11	-25%	0.8%
Cc1ccc(N=Nc2c(O)[nH]c(=O)[nH]c2=O)c([N+](=O)[O-])c1	0%	-20	-21%	1.0%
CC(C)n1c(O)c(C=NCc2cccnc2)c(=O)[nH]c1=S	8%	5	8%	5.3%
CC(C)c1ccccc1NC1=NCCCS1	17%	/	1%	-1.5%
CCC(=O)OC1(Cc2ccc(CC)cc2)CC(C)N(C)CC1C (stereo not drawn)	-1%	0	1%	-1.9%
CCN(CC)C(=O)c1ccc(NC(=O)c2ccc(-n3cncn3)c([N+](=O)[O-])c2)cc1	3%	/	/	0.0%
Cn1c2ccccc2c2cnn(CC(=O)N3CCC4(CC3)OCCO4)c(=O)c21	/	3	-4%	/
CC(=O)O[C@H]1C(=O)[C@@]2(C)C([C@H](OC(=O)c3ccccc3)[C@]3(O)C[C@H](OC(=O)[C@H](O)[C@@H](NC(=O)Cc4ccccc4)c4ccccc4)C(C)=C1C3(C)C)[C@]1(OC(C)=O)CO[C@@H]1C[C@@H]2O (stereo partly drawn)	19%	/	4%	-1.2%
CCN(CC)CCCOC(=O)C(OC)(c1ccccc1)c1ccccc1	13%	7	-2%	3.7%
CCC(=NCc1ccco1)c1c(O)n(-c2ccc(Cl)cc2)c(=O)[nH]c1=O	7%	1	0%	0.1%
C(#CCN1CCOCC1)COCc1ccccc1	15%	7	-16%	2.7%
COC(=O)C1=C(c2ccc(S(C)(=O)=O)cc2)C[C@@H]2CC[C@H]1N2C(=O)NCc1cccc2ccccc12	-1%	/	/	5.3%
O=c1[nH]c(CN2CCNCC2)nc2ccccc12	-2%	8	0%	-2.4%

Additional results
Molecule	Rango release inh	GLA inh pH 4.5	miR-21 reporter	Rango complex inh
CN1CCN(c2ccc([N+](=O)[O-])c3no[n+]([O-])c23)CC1	?	-14	?	?
O=S(=O)(c1ccccc1)N1CCCCC1c1cccnc1 (stereo not drawn)	-4%	8	-10%	?
CC1C(c2ccccc2)OCCN1C (stereo not drawn)	-4%	/	/	-1.8%
CN1CCc2nc3ccc(F)cc3c(C(N)=O)c2C1	16%	-7	-1%	-2.6%
Cc1ccc(S(=O)(=O)N(C)C/N=C(\N)N[N+](=O)[O-])cc1	-4%	2	-4%	4.1%
O=c1cc(-c2ccc(O)c(O)c2)oc2cc(O)cc(O)c12	?	-9&16&2	-66%	?
COC(=O)C1=C(c2ccccc2OCc2ccccc2)C[C@@H]2CC[C@H]1N2C(=O)NCc1ccc(Cl)cc1	?	/	/	0.7%
NC(=O)c1ccc(N)nc1	1%	1	/	0.5%
Fc1ccc(C2=CCN(C(c3cccs3)c3nnnn3CCc3ccccc3)CC2)cc1 (stereo not drawn)	-14%	-3	2%	0.2%
COCCCN1Cc2ccccc2C1=N	0%	-2	-3%	-6.0%
CCC(=NCc1cc(OC)cc(OC)c1)c1c(O)[nH]c(=O)[nH]c1=O	10%	4	-23%	2.1%
O=C(Nc1ccccc1)N1CCC2(CC1)OCCO2	-14%	-11	-1%	-0.3%
CCn1c(O)c(/C=N/NC(=O)c2ccccc2)c(=O)n(CC)c1=S	?	-9	-31%	?
O=C1NC(=S)N(c2ccc(Cl)cc2)C(=O)/C1=C/N1CCN(C(=O)c2ccco2)CC1	-13%	-17	-6%	-0.5%
CN1CCN(c2nc3c(c(=O)[nH]2)CCC3)CC1	12%	/	1%	8.0%

Further results.
Molecule	Rango release inh	GLA inh pH 4.5	miR-21 reporter	Rango complex inh
CN(C)CC1Oc2ccccc2OC1(O)c1ccccc1 (stereo not drawn)	-3%	-1	?	-0.3%
CC(=O)OC(C)(C)/C=C/C(=O)C(C)(O)C1[C@H](O)C[C@@]2(C)C3CC=C4C(CC[C@@H](O)C4(C)C)[C@]3(CO)C(=O)C[C@]12C (stereo partly drawn)	-3%	/	?	0.0%
CC(=O)Nc1ccc(N(C(=O)Cn2nnc3ccccc32)C(C(=O)NC2CCCC2)c2ccc(O)c(O)c2)cc1 (stereo not drawn)	-12%	7	-1%	?
O=C1C2CCCN2C(c2cccc(Cl)c2)N1c1ccccn1 (stereo not drawn)	-6%	2	-2%	-0.3%
CC(=O)OC1C2CCC1C(N1CCCC1)CC2 (stereo not drawn)	1%	/	-8%	-0.3%
O=C(Cn1ncc2ccsc2c1=O)N1CCC2(CC1)OCCO2	-2%	-8	-11%	-2.9%
N#C/C(N)=C(/N)C#N	6%	/	/	-0.7%
CCNc1cc(N2CCNCC2)ccc1[N+](=O)[O-]	/	2	-20%	/
OCc1cnc[nH]1	-14%	-1	-3%	0.6%
Cc1cc(N(CCCl)CCCl)ccc1C=NNC(=O)Cc1cc(=O)oc2cc(O)ccc12	?	/	/	?
CC(N)Cc1c[nH]c2cc3c(cc12)OCCO3 (stereo not drawn)	-1%	5	-6%	-1.5%
Cc1cccc(OC(=O)N2CCOCC2)c1	-5%	4	5%	2.4%
CC(C)Oc1ccc(C2C(C#N)=C(N)Oc3c2c(=O)oc2ccccc32)cc1 (stereo not drawn)	-3%	1	-2%	-4.5%
O=[N+]([O-])c1ccc(C2C3C(c4ccccc4)=NC4(CCCC4)N32)cc1 (stereo not drawn)	0%	-2	-1%	-2.7%
COC(=O)C1=C(c2cc3ccccc3s2)C[C@@H]2CC[C@H]1N2C(=O)NCc1ccc(C(F)(F)F)cc1	-17%	/	/	-0.2%

New compounds follow.
Molecule	Rango release inh	GLA inh pH 4.5	miR-21 reporter	Rango complex inh
Cc1ccc(-n2cc(CNC(C)Cc3cnccn3)c(-c3cccc(C)c3)n2)cc1 (stereo not drawn)	19%	-13	13%	0.7%
CN(C)N=O	-5%	/	/	1.8%
CC(C)C1(C)N=C(c2nc3ccccc3cc2C(=O)O)NC1=O (stereo not drawn)	-11%	7	1%	?
N#CCCn1cc(C(=O)Nc2ccccc2Br)c(-c2ccc3c(c2)OCCO3)n1	-12%	-1	-3%	?
COc1ccc(C(C)=O)cc1CN1CC=C(c2ccccc2)CC1	-11%	/	-5%	-3.8%
OC(c1cccc(Cl)c1)(c1cccc(Cl)c1)C1CN2CCC1CC2 (stereo not drawn)	-1%	-3	?	-3.2%
O=C1NC(=S)NC(=O)C1=Cc1ccc2c(c1)CCN2CCCCl	-1%	-5	1%	-1.5%
CCOP(=O)(C#CC(C)(C)C)C(C)(O)c1ccccc1 (stereo not drawn)	35%	-6	-3%	1.7%
CN1CCN(c2ccc([N+](=O)[O-])c3cccnc23)CC1	-7%	-9	-19%	-2.1%
COC(=O)C1=C(c2ccc3ccccc3c2)C[C@@H]2CC[C@H]1N2C(=O)NC1CCCCC1	-16%	/	/	-0.4%
CCCCC12CNCC(C)(CNC1)C2=O	2%	6	-1%	1.9%
COc1ccccc1CN1CCN(C(=O)Cc2ccccc2)CC1	-7%	4	-7%	1.7%
N#CC1=C(N)Oc2c(c(=O)oc3ccccc23)C1c1ccccc1OC(=O)c1cccs1 (stereo not drawn)	-9%	-1	0%	-2.5%
Cc1cc(C=O)c(C)n1C1CCCCC1	4%	13	1%	0.4%
CCN(CC)C(=O)c1ccc(NC(=O)c2cccc(C(F)(F)F)c2)cc1	4%	-9	-13%	0.9%

Sorted by formula weight (smallest number first): part of the list above
Molecule	Rango release inh	GLA inh pH 4.5	miR-21 reporter	Rango complex inh
CCCCC12CNCC(C)(CNC1)C2=O	2%	6	-1%	1.9%
CC(C)C1(C)N=C(c2nc3ccccc3cc2C(=O)O)NC1=O (stereo not drawn)	-11%	7	1%	?
O=C1NC(=S)NC(=O)C1=Cc1ccc2c(c1)CCN2CCCCl	-1%	-5	1%	-1.5%

Additional compounds follow:
Molecule	Rango release inh	GLA inh pH 4.5	miR-21 reporter	Rango complex inh
Fc1cccc(C2NCCc3[nH]cnc32)c1 (stereo not drawn)	-2%	-5	-2%	4.9%
COc1ccc(CN2C(=O)NC(=O)/C(=C/c3ccoc3)C2=O)cc1	?	-4	-3%	?
Cc1ccc(N2C(=O)NC(=O)/C(=C\c3cn(CC(=O)O)c4ccccc34)C2=O)cc1	-24%	/	10%	?
CCCCn1c(C)c(C(=O)O)c2cc(OC)ccc21	-16%	5	1%	5.1%
CC(=O)c1c(O)n(C)c(=S)n(-c2ccccc2)c1=O	-11%	-6	-3%	-1.1%
COC(=O)C1=C(c2ccc(Cl)c(C(F)(F)F)c2)C[C@@H]2CC[C@H]1N2C(=O)N1CCCC1	-15%	/	/	-3.1%
Cc1c(C(c2ccc(Cl)cc2Cl)c2c(O)c3ccccc3oc2=O)c(=O)n(-c2ccccc2)n1C (stereo not drawn)	-22%	-3	-1%&3%	4.3%
Cc1ccc2c(c1)c(=O)c1c3n2CCN(CC#N)C3CC1 (stereo not drawn)	-9%	8	1%	-0.5%
CN1CCN(C(=O)O[C@H]2c3nccnc3C(=O)N2c2ccc(Cl)cn2)CC1	-7%	1	-20%	-1.3%
Cn1cccc1/C=C1\C(=O)NC(=O)N(Cc2ccccc2Cl)C1=O	5%	-2	7%	-6.3%
O=C(Cn1ncc2c3ccccc3n(Cc3ccc(F)cc3)c2c1=O)N1CCC2(CC1)OCCO2	0%	-8	17%	3.5%
COC(=O)C1=C(c2ccccc2)C[C@@H]2CC[C@H]1N2C(=O)NCCNC(C)=O	10%	/	/	0.7%
OCC[n+]1c2ccccc2nc2ccc(N3CCOCC3)cc21	2%	-1	13%	0.8%
Cc1ccc(C(=O)C2(C)N(O)C(C)C(c3cccs3)=[N+]2[O-])cc1 (stereo not drawn)	5%	2	-9%	8.4%

Not all compounds are listed, so the mix of outcomes need not match the whole.
